Mm-Cpn inhibitor = M. maripaludis TRiC chaperonin inhibition; Potency, µM (series often up to 76.9 µM), without a hit: top-dose activity, negative = inhibition, actives largely listed as inhibitors; purified Mm-Cpn ATPase, ADP Transcreener TR-FRET; AID 504842; hit rate 0.031% among 330,000; note: potency is the fitted concentration of half-maximal effect; % is set by controls: 0 for no effect and ±100 for the full control effect; nearly all actives have a fitted effect of over 80% in size
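Measured: ADP formation by purified Mm-CPN. Conditions: 25 nM protein, 10 uM ATP, Tris pH 7.4 with Mg2+, K+ and DTT, 37°C for 30 min. Detection: Transcreener HTRF after 30 min at room temperature.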
EPAC1 agonist = agonists of human EPAC1. EPAC1 agonist qHTS, biochemical assay; response scale: 100% = response to 6.5 mM cAMP. Potency, µM (top dose mostly 154 µM), for inactives: at the top dose activation, usual class: activators. hit rate 0.073% among 360,000. AID 720707; note: potency is the fitted concentration of half-maximal effect; nearly all actives have a fitted effect of over 60% in size
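Nucleotide exchange by EPAC1 (100 nM) on Rap1B–BODIPY-GDP (250 nM) in the presence of 50 uM GDP is tracked fluorescently at 480/540 nm over 30 min. Signals are normalized to a 6.5 mM cAMP control.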
EPAC2 antagonist = EPAC2 (human) antagonism. EPAC2 GEF exchange of Rap1B-BODIPY-GDP, fluorescence. Potency, µM (top dose mostly 114 µM), for the others: top-dose activity, negative = inhibition, most hits filed as inhibitors. AID 720708. hit rate 0.18% among 360,000; note: potency is the fitted concentration of half-maximal effect; % is set by controls: 0 for no effect and ±100 for the full control effect; nearly all actives have a fitted effect of over 45% in size; many of its hits are not listed in these tables
Target sequence (Q8WZA2 whole entry, looked up): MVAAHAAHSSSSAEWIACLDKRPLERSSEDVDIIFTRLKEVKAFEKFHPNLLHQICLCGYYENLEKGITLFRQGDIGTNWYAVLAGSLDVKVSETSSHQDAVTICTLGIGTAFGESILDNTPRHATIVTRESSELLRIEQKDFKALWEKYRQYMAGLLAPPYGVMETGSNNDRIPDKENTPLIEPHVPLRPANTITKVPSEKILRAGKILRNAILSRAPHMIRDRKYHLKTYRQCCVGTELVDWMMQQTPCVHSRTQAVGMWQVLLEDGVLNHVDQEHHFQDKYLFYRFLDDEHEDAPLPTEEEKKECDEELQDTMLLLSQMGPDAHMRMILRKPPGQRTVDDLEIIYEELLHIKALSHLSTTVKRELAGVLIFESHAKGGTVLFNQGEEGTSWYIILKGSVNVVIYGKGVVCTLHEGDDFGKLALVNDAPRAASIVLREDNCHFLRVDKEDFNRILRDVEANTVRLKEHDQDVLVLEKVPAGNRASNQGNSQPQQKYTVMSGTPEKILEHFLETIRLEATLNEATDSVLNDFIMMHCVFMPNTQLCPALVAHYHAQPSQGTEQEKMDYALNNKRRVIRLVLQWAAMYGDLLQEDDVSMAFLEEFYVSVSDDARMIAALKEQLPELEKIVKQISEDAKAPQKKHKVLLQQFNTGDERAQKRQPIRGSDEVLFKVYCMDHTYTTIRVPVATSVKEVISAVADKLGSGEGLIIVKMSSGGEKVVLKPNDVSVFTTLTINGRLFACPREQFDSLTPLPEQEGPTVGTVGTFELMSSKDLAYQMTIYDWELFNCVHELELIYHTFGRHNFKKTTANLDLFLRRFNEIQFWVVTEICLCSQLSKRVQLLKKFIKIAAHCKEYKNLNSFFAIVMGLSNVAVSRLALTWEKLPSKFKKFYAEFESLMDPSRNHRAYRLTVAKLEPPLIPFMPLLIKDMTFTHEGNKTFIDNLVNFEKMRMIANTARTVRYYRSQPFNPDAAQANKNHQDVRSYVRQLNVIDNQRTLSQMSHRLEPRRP
WRN helicase inh = inhibitors of human WRN helicase; Q14191; WRN helicase unwinding, fluorescent forked duplex, kinetic; Potency, µM (top dose mostly 114 µM), without a hit: at the highest dose activity change, negative = inhibition, hits mostly inhibitors; hit rate 0.46% among 360,000; note: potency is the fitted concentration of half-maximal effect; % is set by controls: 0 for no effect and ±100 for the full control effect; nearly all actives have a fitted effect of over 55% in size
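Kinetic red-fluorescence monitoring (525/598 nm) tracks WRN helicase activity after 100 nM fluorophore-quencher forked duplex and 2 mM ATP are added to 20 nM enzyme pretreated 15 min at room temperature with compound.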
EPAC1 antagonist = antagonists of human EPAC1. O95398. EPAC1 GEF assay, Rap1b-BODIPY-GDP exchange fluorescence. Potency, µM (highest dose often 115 µM), without a hit: at the highest dose activity change, negative = inhibition, usual class: inhibitors. hit rate 0.14% among 360,000. AID 720709;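 note: potency is the fitted concentration of half-maximal effect; plate controls were vehicle for no effect and positive control for full effect; nearly all actives have a fitted effect of over 50% in size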
PLK1 PBD block = inhibitors of human PLK1 polo-box domain binding; P53350; Plk1 PBD binding of FITC phosphopeptide, fluorescence polarization; Potency, µM, for inactives: max response, negative = inhibition, usual class: inhibitors; hit rate 2.8% among 360,000; note: potency is the fitted concentration of half-maximal effect; series mostly up to about 57 µM; % is set by controls: 0 for no effect and ±100 for the full control effect; nearly all actives have a fitted effect of over 65% in size
CCT modulator = modulators of cytosolic chaperonin (CCT/TRiC) activity; purified chaperonin ATPase assay, HTRF ADP detection, 30 min; activity change, % (concentration not given with the values), hits read low; hit rate 0.3% among 360,000; AID 651819; in the data active = activity change below about -30%; note: % is set by controls: 0 for no effect and ±100 for the full control effect
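Nucleotide hydrolysis assay: TRiC at 20–40 nM final (set by batch activity) with 10 uM ATP, 30 min at 37 °C, in presence of 76 uM compound. Detection by competitive ADP HTRF, 30 min ambient.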
* marks the source's active call; other numbers are inactive results; ? = inconclusive; nt = no result given; [ ] = remark or other dose. Unless noted, calls come from the whole dose curve; as a rule, active = well fitted curve in the direction sought with a large enough effect; inconclusive = small, poorly fitted or top-dose-only effect, or another doubt; inactive = no such curve, though single readings can be large; an effect the other way counts as inactive or inconclusive. Not all compounds are listed (hit frequency here may not be typical).

1. CCC(C)NS(=O)(=O)c1ccc(NC(=O)CNCc2cccs2)cc1 (stereo unspecified)
2. O=C(Nc1nnc(C2CCCCC2)s1)C1CC(=O)N(c2ccc(F)cc2)C1 (stereo unspecified)
3. COc1ccccc1N1CCN(C(=O)c2ccc3c(c2)CCN3S(C)(=O)=O)CC1
4. NC(CO)C(O)c1ccc([N+](=O)[O-])cc1 (stereo unspecified)
5. CNS(=O)(=O)c1cccc(C(=O)OCc2cc(=O)oc3c(C)c(O)ccc23)c1
6. O=C(CSc1nncc2ccccc12)N1CCCCC1
Assay by compound	1	2	3	4	5	6
Mm-Cpn inhibitor	nt	-1%	-1%	0%	0%	-4%
EPAC1 agonist	7%	-4%	0%	1%	0%	9%
EPAC2 antagonist	6%	-3%	0%	20%	-5%	7%
WRN helicase inh	-8%	-3%	2%	-8%	-16%	12%
EPAC1 antagonist	13%	2%	4%	6%	0%	0%
PLK1 PBD block	-11%	-6%	21µM*	-3%	-1%	-6%
CCT modulator	0.2	-2.0	0.2	0.3	-0.6	-0.1

7. CCOC(=O)c1cc(-c2ccco2)nn1-c1ccc(C)cc1
8. Cc1cccc(N2CC(C(=O)Nc3nnc(SCCN4CCOCC4)s3)CC2=O)c1 (stereo unspecified)
9. COc1cc2c(cc1OC)CN(C(=O)c1cccs1)CC2
10. O=C(OCN1C(=O)c2ccccc2C1=O)c1cc(S(=O)(=O)N2CCOCC2)ccc1F
11. CN1CCN(CC(=O)Nc2nc(-c3c[nH]c4ccccc34)cs2)CC1
12. CCCCOC(=O)c1cc(Cl)c(O)c(OC)c1
Assay by compound	7	8	9	10	11	12
Mm-Cpn inhibitor	1%	0%	-2%	0%	-6%	2%
EPAC1 agonist	3%	-2%	0%	6%	1%	-18%
EPAC2 antagonist	-15%	6%	4%	1%	1%	0%
WRN helicase inh	-8%	?	12%	-15%	-6%	3%
EPAC1 antagonist	-26%	-16%	6%	-9%	-9%	-18%
PLK1 PBD block	-9%	-28%	?	3%	-17%	-5%
CCT modulator	-0.1	0.8	-2.6	0.3	2.7	-1.7

13. COc1cc(S(=O)(=O)NCc2ccc3c(c2)OCO3)c(OC)cc1C
14. CC(=O)Nc1ccc(C(=O)CSc2nccc(=O)[nH]2)cc1
15. Cn1c(SCc2cccc(F)c2)nnc1-c1ccncc1
16. CC1CCN(S(=O)(=O)c2cn(CC(=O)N3CCN(c4cccc(C(F)(F)F)c4)CC3)cn2)CC1
17. Cc1ccc2nc(NCc3ccc(F)cc3)c3nncn3c2c1
18. CN(Cc1ccccc1)C(=O)COc1ccc(-c2nnco2)cc1
Assay by compound	13	14	15	16	17	18
Mm-Cpn inhibitor	-1%	2%	0%	-2%	3%	0%
EPAC1 agonist	2%	2%	-2%	-8%	6%	2%
EPAC2 antagonist	5%	3%	8%	-3%	2%	3%
WRN helicase inh	9%	2%	5%	-2%	0%	-1%
EPAC1 antagonist	-12%	4%	10%	-14%	-4%	-4%
PLK1 PBD block	4%	-29%	3%	-1%	2%	-9%
CCT modulator	0.0	-1.4	1.9	-2.1	-2.1	0.5

19. CCc1cc2c(COC(=O)CCNS(=O)(=O)c3cccc(C(F)(F)F)c3)cc(=O)oc2cc1O
20. CN(C)C(=O)c1ccc(NC(=O)c2cc(-c3ccco3)nc3ccccc23)cc1
21. CCN1CCCC1CNC(=O)c1ccc2c(=O)n(CCOC)c(=O)[nH]c2c1 (stereo unspecified)
22. CS(=O)(=O)c1ccc2nc(NC(=O)c3cccc(NS(=O)(=O)c4ccc(F)c(F)c4)c3)sc2c1
23. CCOc1ccc(C2/C(=C(/O)c3ccc(F)cc3)C(=O)C(=O)N2CCCN(C)C)cc1 (stereo unspecified)
24. Cc1cccc(N2CC(C(=O)Nc3nnc(SCCC4OCCO4)s3)CC2=O)c1 (stereo unspecified)
Assay by compound	19	20	21	22	23	24
Mm-Cpn inhibitor	-2%	1%	-1%	-20%	1%	-1%
EPAC1 agonist	0%	-14%	0%	16%	-1%	-5%
EPAC2 antagonist	-15%	11%	5%	-9%	3%	4%
WRN helicase inh	-13%	?	1%	?	-2%	?
EPAC1 antagonist	-9%	-14%	4%	-13%	1%	-28%
PLK1 PBD block	-4%	?	-1%	?	-3%	?
CCT modulator	0.7	-0.3	0.4	-0.7	-0.9	-0.5

25. COc1cc2c(cc1OC)CN(C(=O)CNS(=O)(=O)c1ccc(C)c(C)c1)CC2
26. CCOc1ccc2oc(C(=O)N3CCN(c4ccccc4OCC)CC3)c(C)c2c1
27. COc1ccc(NC(=O)c2sc(Cl)nc2-c2ccccc2)cc1
28. CCn1c(COc2ccc(C)cc2)nnc1SCC(=O)Nc1ccc(S(N)(=O)=O)cc1
29. CC(Oc1ccc(Br)cc1)C(=O)Nc1nc(-c2ccccn2)cs1 (stereo unspecified)
30. O=C(Nc1ccccc1C(=O)O)c1cc(S(=O)(=O)N2CCCCC2)c(Cl)cc1Cl
Assay by compound	25	26	27	28	29	30
Mm-Cpn inhibitor	0%	-1%	-3%	-1%	0%	3%
EPAC1 agonist	2%	-9%	-10%	-13%	18%	-7%
EPAC2 antagonist	0%	-4%	-6%	25%	-11%	-18%
WRN helicase inh	8%[57.1 µM]	-22%	-22%[57.1 µM]	-12%[57.1 µM]	-13%	-7%
EPAC1 antagonist	-1%	-10%	15%	0%	-10%	-15%
PLK1 PBD block	5%	-9%	5%	-3%	0%	-11%
CCT modulator	-2.3	3.7	-1.0	-1.2	-7.0	-0.4

31. CNC(=O)CSc1nnc(-c2ccco2)n1-c1ccccc1
32. CCOC(=O)Cn1c(C)cc(=O)c2cccc(C)c21
33. CCOC(=O)c1c(NC(=O)Cn2nnc3ccccc32)sc2c1CCC(C)C2 (stereo unspecified)
34. Cc1cccc(N2CC(C(=O)Nc3nnc(SCc4ccccn4)s3)CC2=O)c1 (stereo unspecified)
35. Cc1ccc(CNC(=O)Cn2cnc(S(=O)(=O)N3CCC(C)CC3)c2)o1
36. CN(CC1CCCO1)S(=O)(=O)c1ccc(C(=O)Nc2ccc(S(N)(=O)=O)cc2)cc1 (stereo unspecified)
Assay by compound	31	32	33	34	35	36
Mm-Cpn inhibitor	-1%	-2%	-2%	-3%	-2%	-1%
EPAC1 agonist	-6%	-4%	-11%	1%	10%	0%
EPAC2 antagonist	6%	0%	2%	-2%	11%	-2%
WRN helicase inh	9%	2%	-12%	-27%	2%	3%
EPAC1 antagonist	3%	-1%	-10%	-21%	10%	-27%
PLK1 PBD block	-4%	-8%	-2%	?	-3%	-3%
CCT modulator	-0.6	-3.7	0.0	-2.4	0.3	0.4

37. CC(C)[C@H](NC(=O)c1ccco1)C(=O)OCc1cc(=O)n2c(n1)sc1ccccc12
38. Cc1noc(C)c1S(=O)(=O)N(CC(=O)O)c1ccc2c(c1)OCO2
39. COc1ccc(NC(=O)c2ccc(NC(=O)CSc3nccc(=O)[nH]3)cc2)cc1
40. COc1ccc(C=CC(C)=NNC(=O)c2ccncc2)cc1
Assay by compound	37	38	39	40
Mm-Cpn inhibitor	1%	1%	0%	nt
EPAC1 agonist	-7%	-14%	11%	-1%
EPAC2 antagonist	-1%	2%	2%	3%
WRN helicase inh	?	-2%[57.1 µM]	?	-14%
EPAC1 antagonist	-17%	-4%	-11%	1%
PLK1 PBD block	?	-5%	-24%	4%
CCT modulator	1.0	2.2	0.3	2.1

Single records (already shown).
COc1ccc(C=CC(C)=NNC(=O)c2ccncc2)cc1 is listed with Mm-Cpn inhibitor = nt; EPAC1 agonist = -1%; EPAC2 antagonist = 3%; WRN helicase inh = -14%; EPAC1 antagonist = 1%; PLK1 PBD block = 4%; CCT modulator = 2.1
CC(C)[C@H](NC(=O)c1ccco1)C(=O)OCc1cc(=O)n2c(n1)sc1ccccc12 is listed with Mm-Cpn inhibitor = 1%; EPAC1 agonist = -7%; EPAC2 antagonist = -1%; WRN helicase inh = ?; EPAC1 antagonist = -17%; PLK1 PBD block = ?; CCT modulator = 1.0

Among those listed so far, these have a furan ring, fused or not:
7. CCOC(=O)c1cc(-c2ccco2)nn1-c1ccc(C)cc1
20. CN(C)C(=O)c1ccc(NC(=O)c2cc(-c3ccco3)nc3ccccc23)cc1
26. CCOc1ccc2oc(C(=O)N3CCN(c4ccccc4OCC)CC3)c(C)c2c1
31. CNC(=O)CSc1nnc(-c2ccco2)n1-c1ccccc1
35. Cc1ccc(CNC(=O)Cn2cnc(S(=O)(=O)N3CCC(C)CC3)c2)o1
37. CC(C)[C@H](NC(=O)c1ccco1)C(=O)OCc1cc(=O)n2c(n1)sc1ccccc12
Assay by compound	7	20	26	31	35	37
Mm-Cpn inhibitor	1%	1%	-1%	-1%	-2%	1%
EPAC1 agonist	3%	-14%	-9%	-6%	10%	-7%
EPAC2 antagonist	-15%	11%	-4%	6%	11%	-1%
WRN helicase inh	-8%	?	-22%	9%	2%	?
EPAC1 antagonist	-26%	-14%	-10%	3%	10%	-17%
PLK1 PBD block	-9%	?	-9%	-4%	-3%	?
CCT modulator	-0.1	-0.3	3.7	-0.6	0.3	1.0

Compound activity (PubChem)
